KAT2A inh = qHTS Assay for Inhibitors of GCN5L2. Histone acetyltransferase KAT2A (Homo sapiens), Q92830. GCN5L2 HAT assay, ThioGlo1 CoA-SH fluorescence. Potency, µM (top dose mostly 58.9 µM), for the others: at the highest dose activity change, negative = inhibition, actives largely listed as inhibitors. 390,000 compounds, 0.21% hits
Target sequence (Q92830 whole entry, looked up): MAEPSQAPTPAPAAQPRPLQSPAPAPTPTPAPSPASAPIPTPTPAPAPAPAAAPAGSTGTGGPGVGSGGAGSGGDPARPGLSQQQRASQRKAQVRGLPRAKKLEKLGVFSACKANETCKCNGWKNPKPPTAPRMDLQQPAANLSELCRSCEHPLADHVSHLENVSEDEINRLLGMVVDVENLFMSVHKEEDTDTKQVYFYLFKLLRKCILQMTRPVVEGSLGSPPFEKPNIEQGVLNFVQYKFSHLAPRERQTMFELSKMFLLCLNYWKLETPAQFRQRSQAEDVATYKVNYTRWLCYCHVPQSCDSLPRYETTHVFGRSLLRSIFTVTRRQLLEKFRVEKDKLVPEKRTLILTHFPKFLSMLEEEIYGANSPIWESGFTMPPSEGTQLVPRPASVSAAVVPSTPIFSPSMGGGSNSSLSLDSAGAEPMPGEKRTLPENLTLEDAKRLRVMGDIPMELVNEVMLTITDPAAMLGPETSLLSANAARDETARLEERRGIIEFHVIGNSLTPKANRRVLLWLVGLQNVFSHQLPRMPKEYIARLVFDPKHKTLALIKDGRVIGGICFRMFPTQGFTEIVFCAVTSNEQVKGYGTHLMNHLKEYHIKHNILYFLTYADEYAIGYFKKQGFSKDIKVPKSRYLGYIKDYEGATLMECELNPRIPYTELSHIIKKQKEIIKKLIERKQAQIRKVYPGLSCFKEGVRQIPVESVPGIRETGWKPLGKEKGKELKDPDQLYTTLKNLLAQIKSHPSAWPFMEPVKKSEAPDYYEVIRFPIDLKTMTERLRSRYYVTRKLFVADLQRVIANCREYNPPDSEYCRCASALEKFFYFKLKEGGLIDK
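Preincubate 20nM GCN5L2 with compound 15 min, RT → add 50uM ThioGlo1 + 75uM H3(1-25) + 70uM acetyl-CoA → read fluorescence 0 and 20 min. Primary qHTS; fluorescent artifacts likely.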
N370S GC = qHTS Assay for Inhibitors and Activators of N370S glucocerebrosidase as a Potential Chaperone Treatment of Gaucher Disease; Lysosomal acid glucosylceramidase (Homo sapiens), P04062; N370S GC spleen homogenate, 4MU-glucoside fluorescence; Potency, µM (highest dose often 59.4 µM), for the others: at the highest dose activity change, negative = inhibition, hits mostly inhibitors; 330,000 compounds, 0.092% hits;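 also: 0% = full enzyme activity and -100% = no enzyme basal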
* hit, by the source's call; ? = inconclusive; . = not tested or not shown; & = joins results of further samples; [ ] = dose if it differs, or a comment. Calls follow the shape of the dose curve; as a rule, active = well fitted curve in the direction sought with a large enough effect; inconclusive = small, poorly fitted or top-dose-only effect, or another doubt; inactive = no such curve, though single readings can be large; an effect the other way counts as inactive or inconclusive. Unless noted, % is scaled to controls: 0 for no effect and ±100 for the full control effect; potency is read from the fitted curve at half-maximal effect. This is a subset, and most or all hits are left out here.

Results follow in this order: KAT2A inh | N370S GC
Cc1cnc(C(=O)OCC(=O)Nc2sc3c(c2C(N)=O)CCCC3)cn1
    -3.5% | .
COc1ccccc1CN1C[C@@H]2C[C@@H](c3cccc(C)n3)N3CCC[C@@]23C1=O
    -5.6% | -3.6%
COc1ccc(/C=C/CN2CCN(Cc3ccccc3)C(CCO)C2)cc1 (stereo not drawn)
    -5.6% | -7.5%
CSc1ccccc1NC(=O)C(=O)c1c[nH]c2ccccc12
    -18.5% | 8.7%
Cc1ccc(Nc2ncnc3c2nnn3Cc2ccccc2)cc1
    0.4% | 26.7%
CCn1c(SCc2cccc(OC)c2)nc2ccccc2c1=O
    -5.7% | ?
NC(=O)COc1cc2oc(=O)c3c(c2cc1Cl)CCCC3
    -0.9% | -2.1%
CCn1cc(CNC(=O)c2cc(COc3ccc(F)cc3F)on2)cn1
    -25.3% | 5.8%
CN(Cc1cc2ccccc2[nH]c1=O)C(=O)C1CCCCC1
    0.1% | -6.9%
Cc1nn2c3ccccc3n(Cc3ccccc3)c2nc1=O
    -10.6% | 3.9%
Cc1nn(Cc2ccc(Cl)cc2)c(C)c1NC(=O)c1cc(-c2ccc3c(c2)OCO3)on1
    -9.0% | 0.6%
CC1(C)NC(=O)N(CC(=O)Nc2cc(C(F)(F)F)cc(C(F)(F)F)c2)C1=O
    -25.9% | -12.4%
CCNC(=O)NC1(C(=O)Nc2ccc3c(c2)OCCO3)CCCCC1
    -8.1% | -22.8%
CC(=O)N1CCCc2cc(S(=O)(=O)N(C)CC(=O)Nc3cccc(C)c3C)ccc21
    -6.5% | .
Cc1ccccc1NC(=O)C(C#N)Cc1cccnc1 (stereo not drawn)
    -5.6% | 3.2%

The results go on:
Results follow in this order: KAT2A inh | N370S GC
C/C=C/c1ccc(OCC(=O)O)c(OC)c1
    -1.2% | -10.8%
COc1cc(NC(=O)Cc2ccccc2)nc(OC)n1
    4.3% | -2.4%
Nc1nonc1-n1nnc(C(=O)N/N=C\c2cccc(Cl)c2)c1CN1CCOCC1
    -0.9% | 9.0%
CCOc1ccc(NC(=O)N(CC(C)C)CC(C)C)cc1
    2.7% | -10.5%[12.8 µM]
CCN(CC(=O)NCc1cccs1)C(=O)c1cccc(S(=O)(=O)NC)c1
    0.6% | -5.6%
COc1ccc(CC(=O)Nc2cc(S(=O)(=O)N3CCCCC3)ccc2C)cc1
    -2.0% | -12.5%
CCCC1=NCCn2cccc21
    -4.4% | -25.2%
S=C(NCCc1ccccc1)Nc1ccc(Br)cn1
    -4.3% | 6.8%
CCOC(=O)c1ccc(NC(=O)N2CCN(CCc3ccccc3)CC2)cc1
    -0.6% | -0.7%
CC(=O)NC(Cc1ccccc1)C(=O)NC1CCN(C(=O)c2cnccn2)CC1 (stereo not drawn)
    1.7% | 10.4%
O=C(C1CCN(S(=O)(=O)c2ccccc2[N+](=O)[O-])CC1)N1CCOCC1
    -4.0% | -3.9%
COc1cccc(CNC(=O)c2cc(=O)[nH]c3ccc(S(=O)(=O)N4CCOCC4)cc23)c1
    -7.9% | .
O=C(c1ccc(S(=O)(=O)N2CCCCC2)cc1)N1CCc2ccccc2C1
    3.0% | -1.7%
Cc1cccc(OCCCC(=O)NC2CCCCC2)c1
    -12.9% | 3.6%
Cc1c(NC(=O)CC(=O)Nc2c(C)n(C)n(-c3ccccc3)c2=O)c(=O)n(-c2ccccc2)n1C
    ? | -5.6%

More structures follow.
Results follow in this order: KAT2A inh | N370S GC
CCCCC(CCCC)=N/N=C/c1c(O)n(CC)c2cc(C3=NNC(=O)CC3)ccc12
    -1.6% | -3.4%
COc1ccc(-c2ccc(NS(=O)(=O)c3cc([N+](=O)[O-])ccc3C)cc2)nn1
    ? | -4.4%
Cc1cccc(-n2c(C)c(C)c3c(N)ncnc32)c1
    -2.4% | -17.9%
Cc1cc([N+](=O)[O-])nn1CC(=O)N1CCc2ccccc2C1
    0.0% | 21.4%
COc1ccc(-c2cc(=O)oc3c(C)c(OCC(=O)NCCCn4ccnc4)ccc23)cc1
    -3.7% | -3.4%
Cc1ccc(C(=O)NC2CCN(CC(=O)Nc3c(C)cc(C)cc3C)CC2)cc1
    -22.2% | -8.4%
CCOC(=O)CSc1nc2ccc(C)cc2[nH]1
    3.1% | -3.2%
CCOC(=O)C1CCN(c2c(Nc3ccc(C)c(C)c3)c(=O)c2=O)CC1
    -3.3% | 1.3%
CCOC(=O)N1CCC(N2C(=O)c3ccc(C(=O)Nc4ccc(OC)c(OC)c4)cc3C2=O)CC1
    -1.0% | 3.8%
COC(=O)c1[nH]c(C)c(/C(O)=C2\C(=O)C(=O)N(CCN(C)C)C2c2cc(OC)ccc2OC)c1C (stereo not drawn)
    -3.6% | 2.5%
Cc1cccc(C(=O)NCC(=O)OC(C)C(=O)Nc2ccc(Cl)cn2)c1 (stereo not drawn)
    -2.3% | -8.7%
CCCCNC(=O)c1cccnc1SCC(=O)Nc1ccccc1OC
    -6.9% | -5.4%
CC(C)(C)C(=O)Cn1c(NCCCO)nc2ccccc21
    -1.4% | -1.1%
O=C(CCc1nc2ccccc2c(=O)[nH]1)Nc1cccc(S(=O)(=O)N2CCCCC2)c1
    0.6% | 6.3%
CCCOc1cccc(NC(=O)c2c(-c3ccccc3)noc2C)c1
    -12.2% | 7.9%

(listing goes on)
Results follow in this order: KAT2A inh | N370S GC
Cc1ccc(NN=Nc2nc3c([nH]2)c(=O)n(C)c(=O)n3C)cc1
    -5.4% | -13.5%
COc1ccccc1NC(=O)COc1ccc(-c2nn(C)c(=O)c3ccccc23)cc1
    -7.4%&-1.3% | -7.4%
CCOC(=O)N1CCc2c(sc(NCc3sccc3C)c2C(=O)Nc2cc(OC)ccc2OC)C1
    -23.3% | .
CCc1ccc(NC(=O)N(Cc2ccco2)C(C)c2cccs2)cc1 (stereo not drawn)
    -14.5% | 11.9%
O=C(Cn1cccc1C(=O)c1ccccc1)NCCCc1ccccc1
    -5.2% | -0.6%
O=C1N2CCSC2=NC1(Nc1ccccn1)C(F)(F)F (stereo not drawn)
    1.7% | 2.3%
Cc1c(Cl)cccc1NC(=O)N1CCN(C(=O)c2ccco2)CC1
    -14.7% | -3.6%
COc1ccccc1N1CCN(C(=O)CSc2nnc(NC(=O)c3ccco3)s2)CC1
    -6.0% | 1.3%
CC(C)CNc1nc(NC(C)(C)C)nc(Oc2ccc(=O)[nH]n2)n1
    -3.4% | -1.0%
CC(=O)C1=C(C)Nc2ncnn2C1c1cccc(O)c1 (stereo not drawn)
    1.3% | -18.8%
NC(=O)CSc1nnc(-c2ccco2)n1N
    -4.2%[0.501 µM] | 2.7%
CN(CCNC(=O)Cn1c(=O)sc2ccccc21)Cc1ccccc1
    -4.3% | 14.9%
CCOC(=O)c1cccc(S(=O)(=O)N(CCO)Cc2cc3cc(OC)c(OC)cc3[nH]c2=O)c1
    -7.5% | 0.4%
Cc1cc(SCC(=O)c2cccs2)nc2ccccc12
    13.1% | -18.4%
O=C(COC(=O)CCNS(=O)(=O)c1ccccc1)NNC(=O)c1ccccc1
    -1.4% | -6.1%

A second format for part of the listing above:
structure | KAT2A inh | N370S GC
O=C(Cn1cccc1C(=O)c1ccccc1)NCCCc1ccccc1 | -5.2% | -0.6%
O=C1N2CCSC2=NC1(Nc1ccccn1)C(F)(F)F (stereo not drawn) | 1.7% | 2.3%
Cc1c(Cl)cccc1NC(=O)N1CCN(C(=O)c2ccco2)CC1 | -14.7% | -3.6%
COc1ccccc1N1CCN(C(=O)CSc2nnc(NC(=O)c3ccco3)s2)CC1 | -6.0% | 1.3%

New compounds follow.
Results follow in this order: KAT2A inh | N370S GC
CCN(CC)CCNC(=O)c1cn(C)c2ccc(S(=O)(=O)N(C)C3CCCCC3)cc2c1=O
    -4.8% | 3.6%
CCC(Sc1ccc2nnc(-c3ccc(F)cc3)n2n1)C(=O)OC (stereo not drawn)
    0.5% | 7.0%
CCCS(=O)(=O)N1CCC(C(=O)Oc2ccc(OC)cc2)CC1
    -6.2% | -6.7%
CC(Cl)C(=O)N1c2ccccc2CCc2ccccc21 (stereo not drawn)
    -2.5% | 1.4%
Cc1ccc(COc2ccc3c(c2)OCO3)cc1
    -0.8% | -1.4%
N=C1/C(=C/c2cccn2-c2ccc([N+](=O)[O-])cc2)C(=O)N=C2SC=CN12
    1.4% | 9.2%
CCCCN(C)S(=O)(=O)c1ccc(NC2=NS(=O)(=O)c3ccccc32)cc1
    1.4% | .
CC1CN(Cc2nc3ccccc3c(=O)[nH]2)CC(C)O1 (stereo not drawn)
    -3.0% | 3.0%
Cc1ccc(CNC(=O)CCS(=O)(=O)c2ccc3nc(C)sc3c2)cc1
    -4.1% | -2.0%
COC(=O)CCC(=O)NNC(=O)c1ccc([N+](=O)[O-])cc1
    -6.0% | 1.5%
CCCN(C(=O)CSCC(=O)Nc1ccc(OC)cc1)c1c(N)n(Cc2ccccc2)c(=O)[nH]c1=O
    1.0% | -0.3%
CCN(Cc1ccncc1)C(=O)c1cc(COc2ccc(F)cc2F)on1
    0.9% | 4.2%
CC(O)CNCCNCc1c(OCc2ccccc2)ccc2ccccc12 (stereo not drawn)
    -29.5% | ?
Cc1ccc(S(=O)(=O)N2CCCC(C(=O)N3CCN(c4ccccc4)CC3)C2)cc1 (stereo not drawn)
    ? | -2.8%
Cc1cc(NS(=O)(=O)c2ccc(NC(=S)NC(=O)c3ccc(C(C)(C)C)cc3)cc2)no1
    -8.3% | 7.5%

Remaining list, next part:
Results follow in this order: KAT2A inh | N370S GC
CCOC(=O)c1c(/N=C/C2C(=O)CC(C)(C)CC2=O)sc2c1CCCC2
    -6.7% | 1.5%
C=CCc1c(C)nc(SC)nc1Nc1ccccc1
    -1.8% | 7.2%
CCn1c(SCC(=O)Nc2ccc(N3CCOCC3)cc2)nnc1-c1ccncc1
    0.0% | 0.7%
O=C(COC(=O)CNC(=O)c1ccccc1F)Nc1ccc2c(c1)OCO2
    -6.5% | .
O=[N+]([O-])c1ccc(Cl)c(C[n+]2cccc3ccccc32)c1
    -4.3% | -17.4%
O=C(NN=C1CCCC1)c1ccccc1OCc1ccc(Cl)cc1
    2.6% | 14.0%
Cc1cc(C)c(C)c(S(=O)(=O)Nc2cccc(S(=O)(=O)Nc3ccccc3C(=O)O)c2)c1C
    -13.3% | .
O=C(O)C1CCCN(S(=O)(=O)c2ccc(Br)cc2)C1 (stereo not drawn)
    0.9%[0.501 µM] | 1.5%
O=C(N/N=C/c1cccnc1)c1ccc(O)cc1
    -8.0% | -23.1%
CCOc1ccccc1NC(=O)COC(=O)Cc1ccsc1
    -6.1% | .
CCOC(=O)C1(Cc2cccc(Cl)c2)CCCN(C(=O)c2c(CC)noc2C)C1 (stereo not drawn)
    6.8% | 19.6%
CCn1ccc2c(OCC(=O)NCCc3ccc(OC)c(OC)c3)cccc2c1=O
    -0.9% | 5.1%
NC(=O)c1ccc(NCCCN2CCOCC2)c([N+](=O)[O-])c1
    -6.4% | -11.3%
CCC(CC)C(=O)NCc1ccc(OC)cc1
    -9.1% | 0.1%
CCN(CC)C(=O)COn1c(SCC(=O)N(CC)CC)nc2ccccc2c1=O
    -7.3% | 8.9%

(further entries)
Results follow in this order: KAT2A inh | N370S GC
CCN(CC)Cc1c(C(=O)N/N=C/c2ccc(C)o2)nnn1-c1nonc1N
    -3.8% | -8.4%
CC(=O)NCCc1ccc(C(=O)COC(=O)c2cc(C)oc2C)cc1
    0.0% | .
Cc1ccccc1N(C(=O)Cn1nnc2ccccc21)C(C(=O)NCc1ccco1)c1ccncc1 (stereo not drawn)
    -7.1% | -7.8%
CCOc1ccc2oc(=O)cc(CN3CCN(C(=O)c4ccc(OC)c(OC)c4)CC3)c2c1
    -12.5% | .
CCN1CCN(C(=O)/C=C/c2ccc(C)o2)CC1
    3.1% | 8.7%
O=C(c1ccccc1)c1ccc(-n2cnnc2)c([N+](=O)[O-])c1
    -4.0% | 1.9%
Cc1ccc(S(=O)(=O)N2CCN(C(=O)C3CCCO3)CC2)cc1C (stereo not drawn)
    -3.1% | 1.4%
NC(=O)c1cnn2c1NC(c1ccc(F)cc1)CC2C(F)(F)F (stereo not drawn)
    1.1% | -1.7%
O=C(NCc1ccc2c(c1)OCO2)C(=O)NCC1OCCN1S(=O)(=O)c1ccc(Br)cc1 (stereo not drawn)
    -7.4% | -1.5%
CC(C)(C)NC(=O)NC(=O)CN1CCN(c2ccc(O)cc2)CC1
    -5.6% | 0.7%
CC(=O)c1sc(NC(=O)c2cnc(Cl)c(Cl)c2)nc1C
    -0.3% | -4.0%
CC1CC(C)CN(CCCNC(=O)c2ccc3c(SCC(=O)O)c4c(nc3c2)CCC4)C1 (stereo not drawn)
    0.0% | 6.2%
O=C(CSc1ncn[nH]1)Nc1ccc(OCc2ccccc2)cc1
    -15.8% | 5.7%
Cc1ccc(NC(=O)N2CCC(O)(c3cccnc3)CC2)cc1
    -4.5% | 0.6%
Cc1ccccc1-c1nc(CS(=O)(=O)CC(=O)NCCCN2CCOCC2)c(C)o1
    3.3% | -1.1%

Ordered by number of heavy atoms (high to low): four of the compounds above.
Results follow in this order: KAT2A inh | N370S GC
O=C(NCc1ccc2c(c1)OCO2)C(=O)NCC1OCCN1S(=O)(=O)c1ccc(Br)cc1 (stereo not drawn)
    -7.4% | -1.5%
O=C(CSc1ncn[nH]1)Nc1ccc(OCc2ccccc2)cc1
    -15.8% | 5.7%
Cc1ccc(NC(=O)N2CCC(O)(c3cccnc3)CC2)cc1
    -4.5% | 0.6%
O=C(c1ccccc1)c1ccc(-n2cnnc2)c([N+](=O)[O-])c1
    -4.0% | 1.9%
